# High-throughput results (PubChem BioAssay)
# Prx2 Sm inh: blocks S. mansoni peroxiredoxin 2 enzymatic activity; S. mansoni Prx2 activity coupled to TGR/GSH (TGR is thioredoxin glutathione reductase), NADPH fluorescence loss, qHTS; some inactives read as strong as hits; Potency, µM; 0.07% of 65,000 active; AID 448; active means full or partial inhibition curve with a strong effect at the top dose; inconclusive means weaker partial or single-point curve; inactive means no accepted curve; note: series up to 57 µM; many of its hits are not listed in these tables
#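 qHTS, coupled TGR/Prx2 format; 15 min compound preincubation at RT; reaction started with H2O2 (2.5 mM aliquot); kinetic NADPH fluorescence decrease, ex 365/em 450 nm.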
# Anthrax LT inh: blocks cellular internalization of anthrax lethal toxin; Cells, anthrax lethal toxin internalization, FRET ratio (460/530); Potency, µM (highest dose often 40 µM), without a hit: at the highest dose activity change, negative = inhibition, hits mostly inhibitors; 0.67% of 70,000 active; AID 912; active = well fitted falling ratio curve with the 530 nm signal flat; inconclusive = other ratio curves, or a change in one channel alone; inactive = flat curves in the ratio and both channels; the % refers to the ratio; note: % is set by controls: 0 for no effect and ±100 for the full control effect; nearly all actives have a fitted effect of over 50% in size; tested in ME-180 cells; beta-lactamase reporter
# The depositor's hits bear a star; ? = inconclusive; · = no result given; [ ] = another dose, or the depositor's remark. Potency is the fitted concentration of half-maximal effect. These rows are one share of the data; the hit share may differ from the screen's.
no.	mol	Prx2 Sm inh	Anthrax LT inh
1	O=C(c1ccco1)N1CCC2(CC1)CCN(c1ccccc1)CC2	>57	?
2	CCC(C)(C(=O)NC1CCCCC1)N(Cc1ccco1)C(=O)CC1NC(=O)NC1=O (configuration not stated)	>57	2%
3	O=C(c1cc2cc3ccc(Cl)cc3nc2o1)N1CCN(Cc2ccc3c(c2)OCO3)CC1	>57	12%
4	COC(=O)CC1NCCNC1=O (configuration not stated)	>57	-13%
5	O=C(NC1CCS(=O)(=O)C1)c1cn(-c2ccccc2)nc1-c1ccccc1 (configuration not stated)	>57	-10%
6	Cc1oc(C)c2c(=O)ccc3c(c12)OC(N)=C(C#N)C3c1ccc(F)cc1 (configuration not stated)	>57	-15%
7	COc1cccc(N=Cc2ccc(O)cc2O)c1	·	-1%
8	CCCCCCCCCCCCC(=O)N1CCCC[C@H]1CNC(=O)[C@@H](N)CCCCN	>57	?
9	CC(=O)Oc1c(S(=O)(=O)c2ccc(C)cc2)c(C)nn1C(C)(C)C	>57	?
10	Cn1c(=O)c(C(=O)NC2CCCCCCC2)c(O)c2ccccc21	·	?
11	CC1=C(C(=O)OC2CCCCC2)C(c2cccnc2)n2nnnc2N1 (configuration not stated)	>57	17%
12	N#CNC(N)=Nc1cccc(Cl)c1	>57	-12%
13	COc1ccc(-c2noc(CN3CCOCC3)n2)cc1OC	>57	-2%
14	CC1CN(C(=O)c2cc(F)c(F)cc2Cl)CC(C)O1 (configuration not stated)	>57	·
15	COCCOC(=O)C(C#N)c1nc2ccccc2nc1N1CCN(Cc2ccccc2)CC1 (configuration not stated)	>57	?
16	COc1ccc(CN(C(=O)CNC(=O)c2ccco2)C(C(=O)NC2CCCC2)c2ccco2)cc1 (configuration not stated)	>57	0%
17	COc1ccc(C2C(C(=O)c3sc(C)nc3C)=C(O)C(=O)N2CCN2CCOCC2)cc1 (configuration not stated)	>57	5%
18	Cc1ccc2c(CC(=O)OCn3nnc4ccccc4c3=O)coc2c1	>57	-15%
19	O=C(NCC(c1cccnc1)N1CCN(c2ccccc2)CC1)Oc1ccccc1 (configuration not stated)	>57	-6%
20	CC(C)c1nc2oc3c(NCC4CCCO4)ncnc3c2c2c1CCC2 (configuration not stated)	>57	-10%
21	O=C(Nc1cccnc1)c1cc2c(ccc3ccccc32)o1	>57	12%
22	CCc1nnc(NC(=O)CSc2nnc(CNc3cccc(C)c3)n2-c2ccccc2)s1	>57	6%
23	COc1ccc2c(c1)cc1n2CCN2CCCN=C12	>57	-4%
24	COc1ccc(-c2noc(COc3ccc4c(c3)OCO4)n2)cc1	>57	4%
25	O=S(=O)(NCCSc1nnnn1-c1ccccc1)c1cccs1	>57	-4%
26	O=C(COc1ccc(Cl)cc1)NCc1nnc(SCC(=O)NC2CCCCC2)o1	>57	?
27	Cn1cccc1C(=O)N1CCC[C@@]2(CCN(c3ncccn3)C2)C1	>57	-1%
28	Cc1cc(C)nc(N2CCCC(C(=O)NCc3cccc(C(F)(F)F)c3)C2)n1 (configuration not stated)	>57	4%
29	Cn1nc(C(=O)Nc2cccnc2)c2ccccc2c1=O	>57	-3%
30	COc1ccc2[nH]c3c(c2c1)CCn1c-3nc2ccccc2c1=O	>57	3%
31	CC12CCCCC1=NC(c1ccc(Br)cc1)N2O (configuration not stated)	·	4%
32	Cc1cc(NC(=O)CCCN2C(=O)c3cccnc3C2=O)no1	>57	3%
33	Cc1ccc2c(CC(=O)Nc3c(C)n(C)n(-c4ccccc4)c3=O)coc2c1	>57	?
34	CCOC(=O)c1nnn(-c2nonc2N)c1CNc1ccc(C)c(Br)c1	>57	-20%
35	CC(=O)c1ccc(OCC(O)CN2C(C)(C)CC(O)CC2(C)C)cc1 (configuration not stated)	>57	1%
36	Cc1nc(N2CCN(Cc3ccc4c(c3)OCO4)CC2)c2oc3ccccc3c2n1	>57	?
37	O=c1[nH]c2c(n(C3CCCCC3)c1=O)CCC2	>57	-8%
38	CSC1=NCCN1C(=O)c1ccc(S(=O)(=O)N2CCCCC2)cc1	>57	-7%
39	COC(=O)c1[nH]c2cc(OC)ccc2c1NC(=O)CCN1CCCCC1	>57	8%
40	CCCc1n[nH]c2c1C(=O)C(C(=O)OC)C(C)(C)C2 (configuration not stated)	·	19%
41	COc1cccc(-c2cc(C(=O)Nc3cc(C)on3)no2)c1	>57	-19%
42	CCc1cc(N2CCOCC2)cc2c1[nH]c1ccccc12	>57	-20%
43	O=C(CSc1nnc(-c2cccnc2)n1-c1ccccc1)NCc1ccc2c(c1)OCO2	>57	?
44	COc1cccc2cc(C(=O)N3CCN(C(=O)c4ccco4)CC3)c(=O)oc12	>57	12%
45	CCOC(=O)c1c(NC(=O)CSc2nnc(-c3cccnc3)o2)sc(C(C)=O)c1C	>57	-6%
46	Cc1cc(NC(=O)CN2CCN(c3ccccc3O)CC2)no1	>57	?
47	COc1cc2c(cc1OC)C(C(=O)NC1CC1)C1c3ccccc3CCN1C2=O (configuration not stated)	>57	3%
48	Cc1noc(C)c1C(=O)N1CCC2(CC1)CCN(c1ccccn1)CC2	>57	7%

# Profiles from above. Order of screens: Prx2 Sm inh, Anthrax LT inh
# Cc1nc(N2CCN(Cc3ccc4c(c3)OCO4)CC2)c2oc3ccccc3c2n1 is listed as >57, ?
# CC(=O)c1ccc(OCC(O)CN2C(C)(C)CC(O)CC2(C)C)cc1 (configuration not stated) is listed as >57, 1%

# Back to the main list; the 5 compounds before the break are reprinted first.
no.	mol	Prx2 Sm inh	Anthrax LT inh
44	COc1cccc2cc(C(=O)N3CCN(C(=O)c4ccco4)CC3)c(=O)oc12	>57	12%
45	CCOC(=O)c1c(NC(=O)CSc2nnc(-c3cccnc3)o2)sc(C(C)=O)c1C	>57	-6%
46	Cc1cc(NC(=O)CN2CCN(c3ccccc3O)CC2)no1	>57	?
47	COc1cc2c(cc1OC)C(C(=O)NC1CC1)C1c3ccccc3CCN1C2=O (configuration not stated)	>57	3%
48	Cc1noc(C)c1C(=O)N1CCC2(CC1)CCN(c1ccccn1)CC2	>57	7%
49	COc1ccc(CNC(=O)c2ccc(N3CCCC3=O)cc2)cc1	>57	6%
50	CC(C)COC(=O)c1cc(-c2ccc(/C=N/n3cnnc3)o2)ccc1Cl	>57	-8%
51	COc1ccc(C(c2nnnn2C2CCCC2)N2CCc3ccccc3C2)cc1OC (configuration not stated)	>57	-21%
52	Cc1ccc(NC(=O)c2ccccc2O)cc1	>57	-11%
53	CCCNc1nc2c(c(=O)[nH]c(=O)n2C)n1CCC(C)C	>57	0%
54	O=c1[nH]c2ccccc2n1CCCN1CCN(C(c2ccccc2)c2ccccc2)CC1	>57	?
55	Cc1c(NC(=O)C(C#N)=C2CCCCC2)c(=O)n(-c2ccccc2)n1C	>57	-2%
56	O=C(CSc1nnc(-c2cccs2)n1-c1ccccc1)c1ccc2c(c1)OCCO2	>57	8%
57	COc1ccc(OC)c(S(=O)(=O)NC2CCN(Cc3ccccc3)CC2)c1	>57	-6%
58	CCC1Oc2ccc(C)cc2N(CC(=O)NCCCN2CCCCC2CC)C1=O (configuration not stated)	>57	?
59	COC(=O)c1c(C(=O)OC)c2n(c1C)Cc1ccccc1C2	·	-13%
60	CCN1CSC(=S)N(Cc2ccc(OC)cc2)C1	>57	-41%
61	Cc1nc(NC2=NCN(CCc3ccccc3)CN2)nc2ccccc12	>57	4%
62	CO[C@H]1/C=C/O[C@@]2(C)Oc3c(C)c(O)c4c(O)c(c5c(c4c3C2=O)NC2(CCN(CC(C)C)CC2)N=5)=NC(=O)/C(C)=C\C=C\[C@H](C)[C@H](O)[C@@H](C)[C@@H](O)[C@@H](C)[C@H](OC(C)=O)[C@@H]1C	·	?
63	CCN(CC)CCn1c(NCc2cccc(OC)c2)nc2ccccc21	>57	-18%
64	O=C(CCNC(=O)c1ccc(Br)o1)NCc1ccc(Cl)cc1	>57	2%
65	COc1ccccc1C1SCCN1S(=O)(=O)c1cccc(C(F)(F)F)c1 (configuration not stated)	>57	?
66	CCC1Oc2ccc(C)cc2N(CC(=O)NCCCN2CCN(Cc3ccccc3)CC2)C1=O (configuration not stated)	>57	-13%
67	O=C(Nc1c(C(=O)N2CCCCC2)cnn1-c1ccccc1)c1ccco1	>57	-8%
68	Cc1cccc(Cn2c(NCC(C)O)nc3c2c(=O)n(C)c(=O)n3C)c1 (configuration not stated)	>57	·
69	O=Cc1ccccc1	·	-11%
70	O=C(NCCc1csc(-c2ccccc2)n1)c1cccs1	>57	17%
71	CCc1cccc(C)c1NC(=O)CN1C(=O)c2ccccc2S1(=O)=O	>57	-19%
72	CCCS(=O)(=O)c1nc(S(=O)(=O)c2ccc(C)cc2)c(NCCN2CCOCC2)s1	·	5%

# In the list so far, these have a CF3 group:
no.	mol	Prx2 Sm inh	Anthrax LT inh
28	Cc1cc(C)nc(N2CCCC(C(=O)NCc3cccc(C(F)(F)F)c3)C2)n1 (configuration not stated)	>57	4%
65	COc1ccccc1C1SCCN1S(=O)(=O)c1cccc(C(F)(F)F)c1 (configuration not stated)	>57	?

# (more compounds)
no.	mol	Prx2 Sm inh	Anthrax LT inh
73	Cc1ccc(C(C(=O)NC2CCCC2)N(C(=O)c2csnn2)C2CCCC2)o1 (configuration not stated)	>57	8%
74	CN1/C(=C/C(=O)c2nc(S(C)(=O)=O)ncc2Cl)C(C)(C)c2ccccc21	>57	13µM*
75	c1ccc(N2CCN(c3ncnc4scc(-c5cccs5)c34)CC2)cc1	>57	?
76	CC1CCN(C(=O)CSc2ccc3nnc(-c4cccc(F)c4)n3n2)CC1	>57	5%
77	O=C1C[C@H]2C(=O)[C@@H]1[C@@H](C(=O)O)[C@H]2C(=O)O	>57	0%[8 µM]
78	O=C(NCCCN1CCOCC1)c1cc2c(s1)CCCC2	>57	0%
79	COC(=O)C/C=C\[C@@H](C)[C@@H](/C=N\O[C@@H](C)CN1CCCCc2nc(C)c(C)cc21)OC	·	-5%[8 µM]
80	COc1ccc(-c2c(C#N)c(SCc3c(C)noc3C)nc3c2C(=O)CC(C)(C)C3)cc1	>57	12%
81	CC(=O)C[C@H](O)[C@@H](NC(=O)OC(C)(C)C)C(C)C	·	-13%[8 µM]
82	COc1ccccc1CNCc1cccs1	>57	-3%
83	Cc1cc(C)c2cc(CN(CC3CCCO3)S(=O)(=O)c3ccc4c(c3)OCCO4)c(=O)[nH]c2c1 (configuration not stated)	·	-4%
84	COc1ccc2[nH]c(=O)c(CN(CCO)S(=O)(=O)c3ccc4c(c3)OCCO4)cc2c1	>57	-13%
85	Cc1c(Br)cc(C(=O)NCc2ccco2)c(C)c1C	>57	-13%
86	CCc1ccc(Nc2oc(C)cc(=O)c2C(C)=O)cc1	>57	-3%
87	Cc1cc(Nc2cccc(C(F)(F)F)c2)n2nc(C)nc2n1	>57	-8%
88	CC(C)OC(=O)CSc1nnc(-c2ccc(C(C)(C)C)cc2)n1N	>57	-13%
89	Cn1c(CCN2CCN(c3ccc(F)cc3)CC2)nc2cc(NC(=O)c3ccco3)ccc21	>57	5%
90	Cc1c(Cl)cccc1NC(=O)NC1CCCCC1	>57	·
91	CCOC(=O)c1cc2sccc2n1CC(=O)Nc1ccc2c(c1)OCCO2	>57	-9%
92	COCCNC(=O)[C@H](C)/C=C/C(NC(=O)OCc1ccccc1)c1ccc(C(=O)OC)cc1 (some centres not stated)	·	0%
93	Nc1ccc(S(=O)(=O)Nc2ccc(Cl)nn2)cc1	>57	3%[3.58 µM]
94	CC1CCCCN1Cc1nc2c(c(=O)n(C)c(=O)n2C)n1CCc1ccccc1 (configuration not stated)	>57	-9%
95	COc1ccccc1CNC(=O)CCN1C(=O)COc2ccc(C)cc21	>57	0%
96	Cc1ccc(-c2noc(CCC(=O)NC3CCCc4ccccc43)n2)cc1 (configuration not stated)	>57	-1%
97	O=S(=O)(NCc1ccncc1)c1ccc(Br)s1	>57	·
98	COC(=O)[C@@]1(Cc2ccccc2)[C@H]2c3cc(C(=O)N(C)C)n(Cc4ccc(OC)c(OC)c4)c3C[C@H]2CN1C(=O)c1ccccc1	>57	?
99	Cc1cc(C)cc(Nc2ccc(C(=O)O)cc2N)c1	>57	?
100	Fc1ccccc1CSc1nnnn1-c1ccc2c(c1)OCO2	>57	-15%
101	COc1ccc(-c2nnc(SCC(=O)N3CCOCC3)o2)cc1OC	>57	2%
102	Cc1cccc(NC(=O)c2cc(NC(=O)c3ccco3)ccc2N2CCCCC2)c1	>57	-5%
103	C[C@@H]1C(=O)O[C@H]2[C@@H](O)[C@@]34[C@H]5C[C@H](C(C)(C)C)[C@@]36[C@H](OC(=O)[C@@H]6O)O[C@@]4(C(=O)O5)[C@@]12O	>57	-5%
104	CCn1cc(C(=O)O)c(=O)c2cnc(N3CCN(C(=O)Nc4cccc5ccccc45)CC3)nc21	>57	0%
105	COCCN(CCOC)S(=O)(=O)c1ccc(C(=O)NCCCN2CCOCC2)cc1	>57	0%
106	Cn1c(=O)c2c(nc(CN3CCC(C(N)=O)CC3)n2Cc2c(Cl)cccc2Cl)n(C)c1=O	>57	-11%
107	Cn1cccc1C(=O)N1CCC[C@@]2(CCN(Cc3ccccc3)C2)C1	>57	?
108	CCn1cc(C2=NC(C(C)C)CO2)c2ccccc21 (configuration not stated)	>57	-18%
109	Oc1cc(Cl)ccc1Cl	·	-3%
